VACV Venus inh: inhibitors of vaccinia virus (Venus reporter); Vaccinia virus Venus reporter expression, fluorescence; Potency, µM (highest dose often 36.5 µM), inactives show at the top dose activity change, negative = inhibition, usual class: inhibitors; actives 0.46% (n = 330,000); active means well fitted inhibition curve with a large enough effect; inconclusive means small, poorly fitted or top-dose-only effect; inactive means no such curve, though single readings can be large or run the other way; tested in A549 cells; also: nearly all actives have a fitted effect of over 30% in size; inactives centre near -10
VACV mCherry inh: vaccinia inhibition (mCherry reporter); Vaccinia virus mCherry reporter infection, fluorescence; about a quarter of the inactives have no number; Potency, µM (titrated, usually from 36.5 µM), for inactives: top-dose activity change, negative = inhibition, hits mostly inhibitors; actives 0.63% (n = 310,000); active = well fitted inhibition curve with a large enough effect; inconclusive = small, poorly fitted or top-dose-only effect; inactive = no such curve, though single readings can be large or run the other way; tested in A549 cells; also: nearly all actives have a fitted effect of over 35% in size; inactives centre near -10
Active calls of the source: *; i = inactive; ? = inconclusive; . = no result given; & = joins results of further samples; ! = a repeat was not active; [ ] = dose if it differs, or a comment. % is scaled to controls: 0 for no effect and ±100 for the full control effect; potency is read from the fitted curve at half-maximal effect. An unsorted share of the library, and some 0.87% of all compounds hit somewhere here.

compound	VACV Venus inh	VACV mCherry inh
C=CC[C@@H](CC(=O)N(CCO)Cc1ccccc1)C(=O)N[C@H](COC(=O)[C@@H](CC=C)CC(=O)OC(C)(C)C)Cc1ccccc1	-13%	i
O=C(Cn1ncc2c1-c1ccccc1OC2)N1CCN(c2ccccc2)CC1	-3%	-17%
O=C(CSc1nc2ccsc2c(=O)n1-c1ccc(Cl)cc1)NCc1ccc(Cl)cc1	10%	-1%
Cc1c(C(=O)NCCC2=CCCCC2)oc2ccc(S(=O)(=O)N3CCC4(CC3)OCCO4)cc12	?	?
CC(C)NC(=O)N(C)C[C@H]1Oc2ccc(NC(=O)Nc3ccccc3)cc2C(=O)N([C@@H](C)CO)C[C@@H]1C	-7%	i
CCc1ccccc1NC(=O)c1ccc([N+](=O)[O-])s1	-14%	-17%
O=C(CSc1ccc(-c2ccc(F)cc2)nn1)NCC1CCCO1 (stereo not given)	-5%	i
NS(=O)(=O)c1cccc(NC(=O)COC(=O)/C=C/c2ccco2)c1	3%	i
CCNC(=O)CP(=O)(c1ccccc1)c1ccccc1	3%	.
O=c1n(Cc2ccc([N+](=O)[O-])cc2)c2ccccc2c2nc(-c3ccccc3)nn12	-18%	-24%
O=C(CSc1n[nH]c(-c2ccco2)n1)Nc1ccc(F)cc1	-1%	29%
CC(C)CCN1CCN(Cc2cccc3cccnc23)CC1CCO (stereo not given)	1%	5%
O=C(/C=C/c1ccc(Cl)cc1)c1ccc([N+](=O)[O-])o1	10µM*	8.9µM*
CCc1ccc(C2C(C#N)=C(N)N(N(C)C)C3=C2C(=O)CCC3)s1 (stereo not given)	4%	i
O=C(CSc1ccc2nnc(-c3ccccn3)n2n1)Nc1ccc2c(c1)OCO2	-5%	-13%
CC(=O)c1ccc(N2CCN(S(=O)(=O)c3cn(C)cn3)CC2)cc1	-11%	-21%
COc1ccccc1CNS(=O)(=O)c1cc2c3c(c1)CCC(=O)N3CCC2	-13%	i
C=C[C@@H]1c2c(F)cccc2N(S(=O)(=O)c2ccc(C)cc2)[C@H](c2ccc(C(=O)OC)cc2)C1(C#N)C#N	-23%&-6%	-12%
COc1cc(/C=C2\SC(=S)N(NS(=O)(=O)c3ccc(C)cc3)C2=O)cc(OC)c1OC	-12%	-6%
CCOc1ccc(/C=C/c2nc(C#N)c(N3CCN(c4ccccc4)CC3)o2)cc1	-19%	-14%
COc1ccc(S(=O)(=O)N2CCN(c3ccccc3F)CC2)cc1-c1noc(C)n1	-20%	-3%
COc1cc(C(=O)NCC(=O)N/N=C(/C)c2cccs2)cc(OC)c1OC	-6%	i
Cc1ccc(Nc2c(-c3ccccn3)nc3cccc(C)n23)cc1	-21%	13µM*
COc1ccc(N2CCN(C(=O)CCc3nnc4n(C)c(=O)c5sccc5n34)CC2)cc1	-15%	-8%

Looked up above:
COc1ccc(N2CCN(C(=O)CCc3nnc4n(C)c(=O)c5sccc5n34)CC2)cc1 in VACV mCherry inh shows -8%
CC(=O)c1ccc(N2CCN(S(=O)(=O)c3cn(C)cn3)CC2)cc1 in VACV mCherry inh shows -21%
C=C[C@@H]1c2c(F)cccc2N(S(=O)(=O)c2ccc(C)cc2)[C@H](c2ccc(C(=O)OC)cc2)C1(C#N)C#N in VACV Venus inh shows -23%&-6%
O=C(CSc1ccc2nnc(-c3ccccn3)n2n1)Nc1ccc2c(c1)OCO2 in VACV Venus inh shows -5%
COc1cc(/C=C2\SC(=S)N(NS(=O)(=O)c3ccc(C)cc3)C2=O)cc(OC)c1OC in VACV Venus inh shows -12%

(more compounds)
compound	VACV Venus inh	VACV mCherry inh
CCN1CCN(C(=O)c2cc(COc3ccc(C(C)=O)cc3OC)on2)CC1	-10%	-1%
Cc1cccc(-c2noc(Cc3ccccc3)n2)c1	-13%	-13%
CCc1sc(Nc2cccc(Cl)c2C)nc1-c1cc2cccc(OC)c2oc1=O	-12%	-7%
O=C(Nc1ccc(OCC(=O)N2CCOCC2)cc1)Nc1cccc2ccccc12	-17%	-8%
COc1ccc(C(=O)NCc2cccnc2)cc1OC	-4%	-10%
Cc1ccc(C(=O)Nc2cc3ccccc3oc2=O)cc1	-24%	-4%
COC(=O)[C@@]1(Cc2ccccc2)[C@H]2C(=O)N(Cc3ccccc3)C(=O)[C@H]2[C@H]2CN=C(SCc3ccc(Cl)cc3)N21	-24%	?
CN(Cc1ccccc1)c1nccn2ccnc12	6%	7%
COc1ccc(OC)c(N/C=C/C(=O)c2ccccc2)c1	-9%	-11%
Nc1cc2c3ccccc3ccc2c2ccccc12	-6%	i
COc1ccc(-n2nc3c(N4CCCC(C(=O)NCc5ccc(C)cc5)C4)nnc(C)c3c2C)cc1 (stereo not given)	-28%	-24%
CCOC(=O)N1CCC(NC(=O)C2CCN(S(=O)(=O)c3cnc[nH]3)CC2)CC1	13%	3%

Gathered by group: the compounds so far with fluorine
compound	VACV Venus inh	VACV mCherry inh
O=C(CSc1ccc(-c2ccc(F)cc2)nn1)NCC1CCCO1 (stereo not given)	-5%	i
O=C(CSc1n[nH]c(-c2ccco2)n1)Nc1ccc(F)cc1	-1%	29%
C=C[C@@H]1c2c(F)cccc2N(S(=O)(=O)c2ccc(C)cc2)[C@H](c2ccc(C(=O)OC)cc2)C1(C#N)C#N	-23%&-6%	-12%
COc1ccc(S(=O)(=O)N2CCN(c3ccccc3F)CC2)cc1-c1noc(C)n1	-20%	-3%

3 compounds already listed, sorted by count of non-hydrogen atoms, high to low:
compound	VACV Venus inh	VACV mCherry inh
CCOC(=O)N1CCC(NC(=O)C2CCN(S(=O)(=O)c3cnc[nH]3)CC2)CC1	13%	3%
COc1ccc(C(=O)NCc2cccnc2)cc1OC	-4%	-10%
Nc1cc2c3ccccc3ccc2c2ccccc12	-6%	i

Carrying on:
compound	VACV Venus inh	VACV mCherry inh
C[N+]1(CC(O)COc2ccccc2)CCN(C(=O)c2ccc([N+](=O)[O-])cc2)CC1 (stereo not given)	-8%	-5%
CCc1ccc(CNC(=O)c2nn(-c3ccc(OC)c(Cl)c3)c(=O)c3c2c2ccccc2n3C)cc1	5%	-15%
CNC(=O)C[C@H]1C(=O)N(c2ccccc2)C[C@@H]1Cc1ccccc1	-12%	-13%
C/C(=N\NC(=O)c1ccc([N+](=O)[O-])cc1Cl)c1ccccc1	-20%	-6%
N#Cc1c(N)sc(=S)c2c1CCCC2	-18%	5%[1.46 µM]
CC(=O)Nc1ccc(NC(=O)c2c(C)nn(Cc3ccccc3Cl)c2C)cc1	-8%	i
Cc1ccc(CN(Cc2ccco2)C(=O)COc2ccc(Cl)cc2Cl)cc1	-8%	-8%
O=C(Nc1ccc(NC(=S)NC(=O)c2ccco2)cc1)c1ccccc1	8%	-10%
COc1ccc(CCNC(=O)c2cc(-c3cc(C)cc(C)c3O)n[nH]2)cc1OC	0%[7.34 µM]	-1%[7.34 µM]
CCOC(=O)C1(Cc2ccc(Cl)cc2)CCN(C(=O)c2cc(C)nc(C)n2)CC1	-9%	i
CN1CCN(c2ccc([N+](=O)[O-])cc2S(=O)(=O)N2CCOCC2)CC1	-12%	-13%
Cc1cc(C)nc(N(C#N)CC(=O)N(c2ccccc2)C(C)C)n1	-20%	.
Cc1cc(=O)n(-c2ccccc2)n1C	?	5µM*!
CCn1c(=O)cc(OCC(=O)NCCC(C)C)c2ccccc21	-5%	-5%
CC(O)CNCCOc1cccc(Oc2ccccc2)c1 (stereo not given)	13%	-10%
CCC1(C)COC(c2ccc(OC)c(OC)c2)OC1 (stereo not given)	-11%	-29%
COCCCn1c(=NC(=O)c2ccccc2)c(C#N)cc2c(=O)n3cccc(C)c3nc21	-7%	-11%
CCOC(=O)CN1C(=O)CC(C[C@@H](O)C2C[C@@H](C)C[C@H](C)C2=O)CC1=O (stereo not given in full)	-8%[60.7 µM]	i
O=C(NCc1ccccn1)c1cc2n(n1)C(C(F)(F)F)CC(c1ccco1)N2 (stereo not given)	3%	.
COc1ccc(CNC(=O)O[C@H]2C[C@@H]3C(=O)N(c4ccccc4)C(=O)[C@@H]3[C@@H]3CN(S(=O)(=O)c4ccc(C)cc4)C[C@]23O)cc1OC	-4%	i
COc1ccc(Cc2c(-c3ccc(OC)c(OC)c3)nc3ccc(C)cn23)c(C)c1	-10%	i
CCCCCCCC/C=C/CCCCCCCCOP(=O)([O-])OCC[N+](C)(C)C	-7%	-6%
COc1ccc(-c2noc(CC(=O)N(C)c3cccc(C)c3)n2)cc1	-7%	-14%
COc1cc(C(=S)N2CCCC2)cc(Cl)c1OCC(=O)Nc1ccc(C)cc1C	-11%	-21%

The list goes on.
Molecule,VACV Venus inh,VACV mCherry inh
O=C(NCc1cccnc1)C1CC(=O)N(c2ccc(F)cc2)C1 (stereo not given),-11%,-13%[1.46 µM]
COc1ccc(-c2nc(CN3CCC(C(=O)NCCc4ccccc4)CC3)c(C)o2)cc1OC,-10%,-20%
CCN1C[C@]2(COC)CC[C@H](OC)[C@@]34C1[C@]1(OCO[C@@]15C[C@H](OC)[C@H]1C[C@@H]3[C@@H]5[C@H]1OC)[C@@H](O)[C@H]24,-18%,i
CC(=O)NS(=O)(=O)c1ccc(NC(=S)NC(=O)CC(C)C)cc1,3%,9%
Cc1cccc(NC(=O)CSc2nc3sc(C)cc3c(=O)n2C)c1,-13%,-4%
O=C(Nc1cccc(Cl)c1)c1cc(S(=O)(=O)N2CCCCC2)c[nH]1,1%,2%
CCN(CC)C(=O)c1sc2c(c1C)c(=O)n(CCc1ccccc1)c(=O)n2Cc1cc(C)ccc1C,-25%,-19%
O=C(O)c1ccc(CNCc2ccc(Cl)cc2)cc1,-2%,-13%
CCC(=O)N1CCc2cc(S(=O)(=O)CCC(=O)NCCC3=CCCCC3)ccc21,-13%,-15%
COc1ccc(C(CNC(=O)c2cc(C)on2)N(C)C)cc1 (stereo not given),-14%,i
COc1cc(NC(=O)C2(C)CCCN(C(C)C)C2)cc(OC)c1OC (stereo not given),7%,-5%
Nc1nc(NS(=O)(=O)c2ccc(Cl)cc2)nn1-c1ccccc1,-6%,i
COc1ccc(-n2nc(C(=O)NCC(=O)N3CCN(c4ccccn4)CC3)c3ccccc3c2=O)c(OC)c1,-3%,-4%
Cc1onc(-c2ccccc2Cl)c1C(O)c1ccc(F)cc1 (stereo not given),-8%,-17%
O=C(NC1CCCc2c1cnn2-c1ccccc1F)c1ccncc1 (stereo not given),-29%,?
O=C(NC1CCCC1)c1ccc2c(=O)n(Cc3ccccc3)c(SCc3cccc(F)c3)nc2c1,-19%,i
O=C(COC(=O)/C=C/c1ccc(S(=O)(=O)N2CCOCC2)cc1)NCc1ccc(F)cc1,-10%,-10%
CSc1nc(N)c(C(=O)Nc2ccc([N+](=O)[O-])cc2)s1,-16%,?
COc1ccccc1C(=O)NC(CCSC)C(=O)NNC(=O)c1ccncc1 (stereo not given),-9%,i
CC(C)NC(=O)C1(C)CSCC(=O)N1C1CCN(Cc2ccccc2)CC1 (stereo not given),1%,-19%
CCCCCn1c(NCc2ccccc2OC)nc2ccccc21,-25%,-19%
COC(=O)c1ccc2nccnc2c1,-10%,-14%
CCCCC(=O)N(C)c1c(CC)nc2c(OCC(N)=O)cccn12,0%,i
CCCCNc1ncnc2c1nnn2C,-14%,i
CCCCOc1ccc(C(C)NC(=O)C2CCCN(S(=O)(=O)CC)C2)cc1 (stereo not given),-11%,-10%
CC(NC(=O)C12CC3CC(CC(C3)C1)C2)C(=O)NCCN(C)C (stereo not given),-7%,-9%
Cc1ccc(-c2nc(CS(=O)CC(=O)NC3CCCC3)c(C)o2)cc1 (stereo not given),-8%,i
CCOC(=O)C1=C2SCCN2C(=O)C(C#N)C1(C)C (stereo not given),-22%,-10%
COc1ccc(N2CCN(C(c3ccc4ncccc4c3)c3nnnn3C(C)(C)C)CC2)cc1 (stereo not given),0%,?
Cn1cccc1C(=O)OCc1csc(-c2ccccc2)n1,2%,0%
C(=N\Nc1nc(N2CCCC2)nc(N2CCCC2)n1)/c1ccccc1OCc1ccccc1,-5%,-4%
CCc1c(C)nc2ccc(Br)cc2c1Cl,-10%,-10%
COc1ccc(/C=C/C(=O)c2ccc(O)cc2)cc1,-2%,-2%
Fc1ccccc1CNCCCSc1nnnn1-c1ccccc1,-15%,-11%
c1ccc2c(c1)Nc1cc3ccccc3cc1O2,-4%,-20%
COc1cc(C2CC(=O)Nc3c2c(=O)[nH]c2nc4ccccc4n32)ccc1O (stereo not given),-4%,-5%
Cc1ccccc1NC(=O)CC1C(=O)NCCN1C(=O)c1cccc(Cl)c1 (stereo not given),-13%&5%,-16%&-3%
CCOCC(=O)Nc1ccc(C)c(Cl)c1,-1%,-12%
CCNC(=O)/C(C#N)=C/c1c(N2CCCCCC2)nc2c(C)cccn2c1=O,?,?
CC(CN1CCCCC1)C(=O)NN (stereo not given),-11%,i

Some of the entries above in another layout:
Cn1cccc1C(=O)OCc1csc(-c2ccccc2)n1
  VACV Venus inh = 2%
  VACV mCherry inh = 0%
CCCCCn1c(NCc2ccccc2OC)nc2ccccc21
  VACV Venus inh = -25%
  VACV mCherry inh = -19%

Other entries.
Molecule,VACV Venus inh,VACV mCherry inh
CCOC(=O)c1csc(NC(=O)Nc2cccc(Cl)c2)n1,-14%,-14%
N#Cc1ccc(NC(=O)COc2ccc(-n3cnnn3)cc2)cc1,26%,-8%
Cc1ccc(NC(=O)/C(C#N)=C/c2ccsc2)c(C)c1,-14%,-7%
Cc1ccc(S(=O)(=O)Nc2ccccc2[N+](=O)[O-])cc1,-23%,?

Source: PubChem (National Center for Advancing Translational Sciences (NCATS))
